eIF4H inh = inhibitors of RNA binding by human eIF4H | Q15056 | eIF4H fluorescence polarization binding assay | inhibition, % at 35 µM | 290,000 tested, 0.94% active | AID 2012;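 active = 50% or more with normal probe brightness, or confirmed in later tests; inconclusive = above 50% with abnormal brightness, or retests that disagree; inactive = below 50% or failed in later tests; about a fifth of its hits are not listed in these tables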;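 also: calls also rest on retests at 20 µM and on dose response follow-up; 0% = protein and probe with vehicle and 100% = probe without protein; strong numbers were not always called active; many hits fall short of the cut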
Yeast UUG start = yeast start codon fidelity modulation; activity score, % at 18.7 µM; AID 602363; 350,000 tested, 0.13% active; S. cerevisiae UUG-firefly luciferase reporter, luminescence/redox ratio;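 active = replicate mean at a twofold rise or more, about +100% in these data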;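 also: firefly luciferase made from a UUG start codon reports start codon fidelity; reporter light over untreated wells divided by growth signal over untreated wells; some hits fall short of that in this replicate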
CSC inhib = cancer stem cell inhibition | cancer stem cell-like cells viability, luminescence | 300,000 tested, 1.1% active | inhibition, % at 7.5 µM;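 active = mean at 75% or more and at least half the replicates too; inconclusive = mean and replicates disagree; tested in HMLE shEcad cells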;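 also: 0% = median of negative and 100% = median of positive control wells; the first replicate is given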
HIV Env fusion = HIV envelope-mediated fusion inhibition | HeLa-JRFL Env/CEM21 cell fusion, luciferase | inhibition, % at 12.3 µM | 360,000 tested, 1.1% active;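 active = mean replicate inhibition score of at least 50 and every replicate individually at or above 50; inconclusive = only one of the two criteria met; inactive = mean below 50 and not all replicates reaching 50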;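 also: 0% = plate neutral controls and 100% = maraviroc near 300 nM; one replicate is shown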
PABP polyA inh = blocks human PABP binding to poly(A) RNA | 290,000 tested, 1% active | fluorescence polarization | inhibition, % at 35 µM | P11940;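 active = 50% or more with normal probe brightness, or confirmed in later tests; inconclusive = above 50% with abnormal brightness, or retests that disagree; inactive = below 50% or failed in later tests; about a fifth of its hits are not listed in these tables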;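 also: calls also rest on retests at 20 µM and on dose response follow-up; controls were probe without protein and protein plus probe with vehicle; some compounds called inactive have numbers as strong as hits; many hits fall short of the cut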
Target sequence (P11940 whole entry, looked up): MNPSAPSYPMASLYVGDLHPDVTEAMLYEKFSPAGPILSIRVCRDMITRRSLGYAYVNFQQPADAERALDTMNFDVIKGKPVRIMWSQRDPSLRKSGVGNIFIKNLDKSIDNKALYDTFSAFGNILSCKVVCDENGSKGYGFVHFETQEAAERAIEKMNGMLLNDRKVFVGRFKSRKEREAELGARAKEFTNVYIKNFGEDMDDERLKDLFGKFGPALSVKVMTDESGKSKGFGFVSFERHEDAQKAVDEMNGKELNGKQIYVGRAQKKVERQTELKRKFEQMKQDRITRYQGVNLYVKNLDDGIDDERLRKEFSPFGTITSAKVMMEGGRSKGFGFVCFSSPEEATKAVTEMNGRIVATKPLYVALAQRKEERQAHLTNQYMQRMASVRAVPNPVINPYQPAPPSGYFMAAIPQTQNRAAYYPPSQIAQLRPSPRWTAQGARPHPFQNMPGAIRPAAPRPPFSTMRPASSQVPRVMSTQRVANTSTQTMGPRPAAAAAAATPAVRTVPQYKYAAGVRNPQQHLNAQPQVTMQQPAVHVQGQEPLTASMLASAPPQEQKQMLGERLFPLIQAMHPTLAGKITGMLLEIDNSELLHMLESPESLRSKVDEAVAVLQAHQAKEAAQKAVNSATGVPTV
Rce1 inhib = inhibitors of yeast Ras-converting enzyme | Q03530 | yeast membranes, quenched prenylated peptide cleavage fluorescence | calls only | 290,000 tested, 0.27% active | AID 2563;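 active = fall in fluorescence gain of 50% or more versus controls, with final raw signal at or below 3038400; inconclusive = same 50% fall but final raw signal above 3038400; inactive = fall in fluorescence gain under 50%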;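 also: plate controls were neutral control wells for no effect and wells lacking membranes for full effect; tested at 10 µM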
MT1-MMP act inh = inhibitors of human MT1-MMP activation; GFP/RFP ratio change, % at 20 µM; 360,000 tested, 0.061% active; HT1080 RFP-PRO-GFP cells, GFP/RFP ratio fluorescence, overnight; percent of plate control window, DMSO zero; P50281;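 active = GFP/RFP ratio change of at least 30% with cell ATP level not reduced by more than half and red fluorescence within 50% of control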; also: strong numbers were not always called active
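Assay system – RFP-PRO-GFP reporter HT1080 cells · Compound dosing – single dose of 20 µM compound, 1% DMSO final · Incubation – overnight compound exposure at 37 °C · Measure – GFP/RFP fluorescence ratio · Benchmarks – DMSO wells and RFP-L50D-GFP cells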
eIF4H inh retest = second read-out of eIF4H inh, no call of its own (marks repeat the call); inhibition, %; compound at 20 µM; confirmation average;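 mean of two retest wells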
PABP polyA inh retest = also measured in PABP polyA inh; calls as there; inhibition, %; compound at 20 µM; confirmation repeats;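 mean of two retest wells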
MT1-MMP act inh RFP = recorded beside MT1-MMP act inh, whose call it bears; RFP signal change, %; measured here: RFP expression control read;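 0 = vehicle wells; hits needed this value within 50% of zero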
* hit, by the source's call; i = inactive; ? = inconclusive; . = not tested or not shown; & = joins results of further samples. An excerpt; count on the stated rates, not on these rows.

SMILES | eIF4H inh | Yeast UUG start | CSC inhib | HIV Env fusion | PABP polyA inh | Rce1 inhib | MT1-MMP act inh | MT1-MMP act inh RFP | others
O=C(N/N=C/c1c(O)n(Cc2ccc(F)cc2)c(=O)[nH]c1=O)c1ccccc1O | 85 | -10 | 42 | 9 | 11 | i | -3 | -11 | eIF4H inh retest=-13;PABP polyA inh retest=0
CC12CN3CC(c4ccccc4)(CN(C1)C31CCCCC1)C2=O | -8 | 6 | -7 | . | 4 | i | 6 | 4
FC(F)(F)/C(=N\P(=S)(N1CCOCC1)N1CCOCC1)N1CCOCC1 | -9 | . | 3 | . | -6 | i | 2 | -2
CCOc1c(Cl)cc(CNC(C)C(O)c2ccccc2)cc1OC (stereo not drawn) | -8 | . | -16 | -3 | -5 | i | -1 | 3
CCOC(=O)C1(Cc2ccc(Cl)cc2)CCN(C(C)CCn2cccn2)CC1 (stereo not drawn) | -3 | . | 45 | -6 | 3 | i | -4 | -1
CN(C(=O)Oc1cccc2cccnc12)c1ccccc1 | -4 | -9 | . | . | 24 | i | 11 | 8
O=c1c2ccccc2nc(Cc2ccccc2)n1-c1ccc(O)cc1 | 2 | . | 2 | 8 | -1 | i | -4 | -2
O=C1Nc2ccccc2Sc2ccccc21 | 10 | . | -1 | -12 | 1 | i | -1 | 2
O=C1NC(=O)C(CCc2ccncc2)(CCc2ccncc2)C(=O)N1Cc1ccccc1 | 1 | . | -9 | 14 | -3 | i | -6 | -8
CCCC1(CCC)C(=O)NC(=NCc2ccccc2)NC1=O | -11 | -10 | 23 | -31 | 4 | . | -15 | -17
CN1C(=O)C(O)N=C(c2ccccc2)c2ccccc21 (stereo not drawn) | -4 | . | -1 | -16 | -7 | i | -2 | 1
O=C(CCn1c(=O)oc2ccccc21)N1CCC2(CC1)OCCO2 | -5 | -21 | 3 | -8 | 10 | i | 2 | 3
Cc1cccc(NP(=O)(Oc2ccccc2)Oc2ccccc2)c1C | 2 | -19 | 10 | -11 | 1 | i | -1 | 3
CCOC(=O)C(O)(c1ccc(N(C)C(=O)COc2ccccc2)cc1)C(F)(F)F (stereo not drawn) | . | -3 | 10 | 19 | . | i | -5 | -1
C/C=C1/C[C@@H](C)[C@](O)(CO)C(=O)OCC2=CCN3CC[C@@H](OC1=O)[C@@H]23 | . | -13 | -1 | 14 | . | . | 1 | 1

The closing 7 compounds of the part above come first, to join the parts:
SMILES | eIF4H inh | Yeast UUG start | CSC inhib | HIV Env fusion | PABP polyA inh | Rce1 inhib | MT1-MMP act inh | MT1-MMP act inh RFP | others
O=C1NC(=O)C(CCc2ccncc2)(CCc2ccncc2)C(=O)N1Cc1ccccc1 | 1 | . | -9 | 14 | -3 | i | -6 | -8
CCCC1(CCC)C(=O)NC(=NCc2ccccc2)NC1=O | -11 | -10 | 23 | -31 | 4 | . | -15 | -17
CN1C(=O)C(O)N=C(c2ccccc2)c2ccccc21 (stereo not drawn) | -4 | . | -1 | -16 | -7 | i | -2 | 1
O=C(CCn1c(=O)oc2ccccc21)N1CCC2(CC1)OCCO2 | -5 | -21 | 3 | -8 | 10 | i | 2 | 3
Cc1cccc(NP(=O)(Oc2ccccc2)Oc2ccccc2)c1C | 2 | -19 | 10 | -11 | 1 | i | -1 | 3
CCOC(=O)C(O)(c1ccc(N(C)C(=O)COc2ccccc2)cc1)C(F)(F)F (stereo not drawn) | . | -3 | 10 | 19 | . | i | -5 | -1
C/C=C1/C[C@@H](C)[C@](O)(CO)C(=O)OCC2=CCN3CC[C@@H](OC1=O)[C@@H]23 | . | -13 | -1 | 14 | . | . | 1 | 1
O=C(Cc1ccccc1)NC(Oc1ccccc1Cl)C(Cl)(Cl)Cl (stereo not drawn) | 1 | -1 | -2 | -20 | 4 | i | 0 | 1
COc1ccc(Cn2c(O)c(/C=N/NC(=O)c3ccncc3)c(=O)[nH]c2=O)cc1 | -6 | -25 | -14 | -2 | -8 | i | -3 | 6
O=C(c1cc2cc(F)ccc2[nH]1)N1CCC2(CC1)OCCO2 | -14 | -20 | -28 | -1 | -6 | i | -2 | 2
CCOc1ccc(Cl)cc1CNCCc1ccc(F)cc1 | 8 | . | 65 | 3 | 3 | i | -8 | -3
Cc1nn(Cc2ccccc2)c(Cl)c1C(=O)OCC(=O)Nc1cccc2ccccc12 | -8 | . | -1 | . | 9 | i | -1 | 2
CN1C(=O)C(=Cc2ccc(Sc3ccccc3)o2)C(=O)N(C)C1=S | . | -17 | 13 | 21 | . | . | 36 | 58
OC(c1ccccc1)(c1ccc(Cl)cc1)C1CN2CCC1CC2 (stereo not drawn) | 11 | . | 9 | -37 | 1 | i | -8 | -9
c1ccc(N2[C@@H]3CC[C@H]2c2ccccc2C3)cc1 | . | 12 | . | -4 | . | . | 1 | -1
O=C(NC1CC2CCCC(C1)N2)c1ccccc1 (stereo not drawn) | 4 | -12 | -10 | 4 | -6 | i | 1 | 2
CC/C(CC(c1ccccc1)c1c(O)c2ccccc2oc1=O)=N\NC(N)=S (stereo not drawn) | 9 | . | -12 | . | 22 | i | 0 | 1
CCC1(c2ccccc2)C(=O)N(C)C(=O)N(C)C1=O | -6 | 3 | -9 | . | 3 | i | 1 | 5
C[C@@H]1C[C@H]2OC(=O)C3(CO3)[C@H]2[C@H](O)[C@]2(C)C(=O)C3OC3[C@@H]12 (stereo partly drawn) | 0 | . | 58 | . | -7 | i | . | .
CC1=NCCc2c1[nH]c1cc(O)ccc21 | . | -17 | -11 | -6 | . | . | -50 | 6
COc1cccc(NC2=NCCCS2)c1 | -2 | -14 | -11 | 0 | -5 | i | -1 | 3
Cc1cccc(OP(=O)(NCc2ccccc2)Oc2cccc(C)c2)c1 | -5 | -5 | 11 | . | 16 | i | -21 | -21
O=C(C1CCC(=O)N1C1CCCC1)N1CCC2(CC1)OCCO2 (stereo not drawn) | -8 | -1 | -11 | 2 | 4 | i | 2 | 5
O=C(NC1CC1)C1CSC(c2cccnc2)=N1 (stereo not drawn) | -9 | 7 | 6 | 11 | -6 | i | 1 | 1
O=C(COC(=O)Cc1ccccc1)NCCNC(=O)COC(=O)Cc1ccccc1 | . | -4 | -10 | -2 | . | i | 4 | 5
CC(Cc1cnccn1)NCc1c(C(=O)N2CCCCCCC2)nc2ccc(Cl)cn12 (stereo not drawn) | 0 | 4 | -7 | 4 | -16 | i | -3 | 1
CNC(=O)Oc1ccc(C(=O)N2c3ccccc3NC(=O)C2C)cc1 (stereo not drawn) | 5 | -10 | -4 | 4 | -2 | i | 0 | -1
CN(C)C(=O)Oc1cccc(OCc2n(C)c3ccccc3[n+]2C)c1 | -8 | 8 | -8 | 22 | 6 | i | 1 | 2
CN1CCC(OC(=O)Cc2ccccc2)CC1 | -6 | . | -3 | -11 | 8 | i | -4 | 4
O=C(COc1ccc2ccc(=O)oc2c1)N1C[C@H]2C[C@@H](C1)c1cccc(=O)n1C2 | 6 | -23 | -11 | . | 12 | i | -5 | -2
Cc1cccc(C)c1-n1nnnc1C(c1ccnc2ccccc12)N1CCC2(CC1)C(=O)NCN2c1ccccc1 (stereo not drawn) | . | -19 | . | -1 | . | . | 1 | -3
O=C(Cc1ccccc1)Oc1ccccc1N1C(=O)CCC1=O | 1 | . | -2 | -119 | 2 | i | 3 | -3
C[n+]1c2ccccc2nc2ccc(NCCO)cc21 | 46 | -14 | 17 | 57* | 76* | i | 55* | 44* | eIF4H inh retest=35;PABP polyA inh retest=67*
O=C(CCN1CCCCC1)Nc1ccc(Cl)cc1C(=O)c1ccccc1 | 1 | -7 | -2 | 13 | 14 | i | 3 | 8
Clc1ccc(CCC(Cn2ccnc2)Sc2c(Cl)cccc2Cl)cc1 (stereo not drawn) | . | -44 | 86* | 8 | . | . | 1 | -15
CC/C(=N\NC(=O)Nc1ccccc1)c1c(O)n(Cc2ccccc2)c(=O)[nH]c1=O | -9 | -11 | -5 | -8 | -6 | i | -2 | 1
O=C1NC(=O)C2(CCCC2)C(=O)N1 | . | -15 | . | 0 | . | . | 1 | -1
CCCOc1ccc(N2C(=O)CC(N3CC=C(c4ccccc4)CC3)C2=O)cc1 (stereo not drawn) | -5 | -8 | 2 | 0 | -17 | i | -1 | 1
COc1ccc(-n2c(O)c(C=Nc3c(C)n(C)n(-c4ccccc4)c3=O)c(=O)[nH]c2=O)cc1 | -7 | -10 | 8 | -16 | -6 | i | -12 | -5
COC(=O)C1=C(c2c(C)noc2C)C[C@@H]2CC[C@H]1N2C(=O)NCCNC(C)=O | . | -18 | 1 | 16 | . | . | 2 | 3
CN1CCN(C(=O)Cc2nc3ccccc3[nH]2)CC1 | 11 | . | -2 | . | 7 | i | 0 | 5
Fc1ccc(CNCCc2ccc3c(c2)OCO3)cc1 | 8 | -7 | -8 | 1 | -2 | i | 1 | 1
CCn1c(O)c(C=Nc2ccc(S(N)(=O)=O)cc2)c(=O)[nH]c1=S | -4 | . | -9 | . | -2 | i | 19 | 69
COc1ccc(C(=O)C23CN4CN(CN(C4)C2)C3)cc1 | -11 | -5 | -14 | 2 | -11 | i | 0 | 3
Cn1cc(C(=O)NP(=O)(N2CCOCC2)N2CCOCC2)c2ccccc21 | 5 | -16 | -13 | -3 | 11 | i | 2 | 5
O=c1c2ccccc2nc(/C=C/c2ccc(F)cc2)n1-c1ccccn1 | 1 | . | -5 | . | 6 | i | . | .
Cc1ccc(N2C(=O)/C(=C/c3ccc(CN(CCC#N)S(C)(=O)=O)o3)C(=O)NC2=S)cc1 | 17 | -25 | -19 | . | 12 | i | -11 | 15
O=c1[nH]c(O)c(C=NCCc2ccccc2)c(=O)[nH]1 | 0 | . | -7 | -6 | 2 | . | 5 | -1
CN1CCN2c3ccc(N)cc3CC3(C(=O)NC(=O)NC3=O)C2C1 (stereo not drawn) | 30 | -13 | . | -10 | ? | i | -1 | 3
COc1ccc(-c2nn(CCC#N)cc2C(=O)NCc2ccccc2)cc1OC | -2 | -8 | -17 | -3 | -4 | i | -2 | -1
N#Cc1ccccc1Cn1cc(C(=O)c2ccccc2F)c2ccccc21 | -5 | -4 | . | . | -12 | i | 1 | -14
Cc1ccc(OC(=O)N(C)C[C@@H]2OCc3cnnn3CCCC(=O)N([C@@H](C)CO)C[C@H]2C)cc1 | . | -9&5 | . | 8 | . | . | 5 | 4
C/C(=N\NC(=O)c1ccncc1)c1c(O)n(-c2ccccc2)c(=O)[nH]c1=O | 0 | -31 | 7 | -1 | 8 | i | -1 | 3
CC(=O)Nc1cc(C(=O)N2CCC3(CC2)OCCO3)ccc1S(=O)(=O)c1ccc(Cl)cc1 | 1 | -3 | -10 | 23 | 6 | i | -2 | -3

Structures shown so far that contain a furan ring, fused or not, in the order listed:
SMILES | eIF4H inh | Yeast UUG start | CSC inhib | HIV Env fusion | PABP polyA inh | Rce1 inhib | MT1-MMP act inh | MT1-MMP act inh RFP | others
CN1C(=O)C(=Cc2ccc(Sc3ccccc3)o2)C(=O)N(C)C1=S | . | -17 | 13 | 21 | . | . | 36 | 58
Cc1ccc(N2C(=O)/C(=C/c3ccc(CN(CCC#N)S(C)(=O)=O)o3)C(=O)NC2=S)cc1 | 17 | -25 | -19 | . | 12 | i | -11 | 15

Screening data deposited in PubChem BioAssay by several laboratories.
